# Source: PubChem (several laboratories)
# Calb FLC: C. albicans growth inhibition with fluconazole, primary screen, CaCi-2 strain, Alamar Blue fluorescence. actives 0.57% (n = 300,000). growth inhibition, % (concentration not given with the values). C. albicans CaCi-2 (fluconazole-resistant clinical isolate) + fluconazole, 48 h;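 active means most replicates above 75%; inconclusive means exactly half above 75%; inactive means most below 75%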;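 further: all wells also contain fluconazole at 8 µg/ml as a sub-toxic cotreatment; 0% = median of DMSO wells and 100% = median of geldanamycin control wells; wells of about 8 µL received 7.5 nL stock; the first replicate is given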
# Vif TR-FRET: inhibitors of Vif binding to APOBEC3G peptide, primary screen, biochemical, TR-FRET, GST-Vif 1-94, biotin-A3G peptide, dose response retest (AID 1117319); Virion infectivity factor (Human immunodeficiency virus type 1 group M subtype B (isolate …; TR-FRET GST-Vif / biotin-A3G peptide binding; higher % means a stronger effect; test concentration not given here; strong numbers were not always called active; one-dose inhibition, %; IC50 in µM for titrated hits; actives 0.57% (n = 260,000);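 active means above the screen mean plus three standard deviations and confirmed in dose response; inconclusive means results disagree or hit not tested in dose response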;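 further: Vif residues 1-94 fused to GST binding biotinylated APOBEC3G peptide 110-148; 0% = full assay without inhibitor and 100% = GST in place of GST-Vif; retest series ran down from 100 µM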
# RanGTP-Imp inh: inhibitors of RanGTP-importin-beta interaction, primary screen, biochemical, FRET, CFP-Ran, YFP-importin-beta, homogeneous; Ran GTPase (GTP-bound) - importin-beta complex; cell-free CFP-Ran/YFP-importin-beta FRET ratio; inhibition, % (test concentration not listed); actives 1.1% (n = 300,000);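 active means most replicates above 15%; inconclusive means exactly half above 15%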;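 further: 0% = DMSO wells and 100% = Ran loaded with GDP instead of GTP; wells of about 40 µL received 100 nL stock; the first replicate is given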
# rRNA inh HTS: reduced GFP signal of wild-type E. coli, primary screen, bacterial rRNA inhibitor project, GFP/RFP fluorescence, OD600, single point; E. coli WT GFP vs humanized-ribosome RFP mutants, 24 h; stronger effect = lower value; DMSO median 0, no signal -100; GFP signal change (wild-type ribosome), % (no concentration beside the values); actives 1.6% (n = 350,000); AID 720706, 2013;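 active means significant combined selectivity score with lowered wild-type GFP, culture density cut under 30%, mutant RFP and density less affected; inactive means any of these conditions unmet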; further: one replicate is shown; some compounds called inactive have numbers as strong as hits
# Bfl-1 A1 inh: caspase 3/7 activation in MEF A1-2A-BIM cells, primary screen, A1 inhibitor project, cell-based, luminescence, HTS; Caspase-Glo 3/7 luminescence, 3 h; percent of clofoctol response, vehicle zero; caspase activation, % (no concentration beside the values); actives 0.066% (n = 330,000);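 active means over half of replicate activation scores above 10%, or exactly half above 10 with the replicate mean above 10; inconclusive means replicate mean below 10 yet half the replicates above 10; inactive means over half of replicates below 10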;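 further: wells of about 30 µL received 50 nL stock; many hits fall short of the cut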
# T cruzi inh: inhibitors of intracellular T. cruzi growth, primary screen, luminescence, NIH3T3 host cells; actives 1.4% (n = 300,000); T. cruzi beta-gal in NIH3T3, 90 h; AID 1885, 2009; inhibition, % (concentration not given with the values);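 active means mean inhibition across valid replicates above about 55%, limit read from the data; inconclusive means mean below that limit but half or more replicates reach it; inactive means mean below it, under half of replicates reach it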;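 further: signal also drops with host cell toxicity which is not excluded here; 0% = plate median of DMSO wells and 100% = zero luminescence signal; higher percent means less beta-gal luminescence so fewer parasites; stock transfer was 50 nL into about 50 µL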
# Beta cell apopt: inhibitors of cytokine-induced beta cell apoptosis, primary screen, luminescence; protection from apoptosis, % (test concentration not listed); INS-1E cytokine-induced death, ATP luminescence, 48 h; percent of positive-control rescue, neutral wells zero; actives 0.8% (n = 300,000);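 active means all replicates at 75% or more, or half of them and the mean; inconclusive means half reach 75% but not the mean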;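 further: 0% = cytokine-treated negative control wells and 100% = positive control rescue; higher means more ATP so stronger rescue from cytokine killing; wells of about 40 µL received 100 nL stock; the first replicate is given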
# AF4-AF9 inh: inhibitors of AF4 peptide binding to AF9, primary screen, biochemical, AlphaScreen, biotin-AF4 peptide, FLAG-AF9, single point; Protein AF-9 (Homo sapiens), P42568; inhibition, % at 10 µM; actives 0.47% (n = 350,000); AID 651704, 2012;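 active means every replicate reaching a set inhibition limit, whatever the replicate mean, cut at about 25% in these data; inconclusive means mean inhibition reaches that limit but some replicates miss it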;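 further: 0% = plate neutral control median and 100% = total signal loss; the record names both 10 and 1 µM as test concentration; the first replicate is given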
# Target sequence (P42568 whole entry, looked up): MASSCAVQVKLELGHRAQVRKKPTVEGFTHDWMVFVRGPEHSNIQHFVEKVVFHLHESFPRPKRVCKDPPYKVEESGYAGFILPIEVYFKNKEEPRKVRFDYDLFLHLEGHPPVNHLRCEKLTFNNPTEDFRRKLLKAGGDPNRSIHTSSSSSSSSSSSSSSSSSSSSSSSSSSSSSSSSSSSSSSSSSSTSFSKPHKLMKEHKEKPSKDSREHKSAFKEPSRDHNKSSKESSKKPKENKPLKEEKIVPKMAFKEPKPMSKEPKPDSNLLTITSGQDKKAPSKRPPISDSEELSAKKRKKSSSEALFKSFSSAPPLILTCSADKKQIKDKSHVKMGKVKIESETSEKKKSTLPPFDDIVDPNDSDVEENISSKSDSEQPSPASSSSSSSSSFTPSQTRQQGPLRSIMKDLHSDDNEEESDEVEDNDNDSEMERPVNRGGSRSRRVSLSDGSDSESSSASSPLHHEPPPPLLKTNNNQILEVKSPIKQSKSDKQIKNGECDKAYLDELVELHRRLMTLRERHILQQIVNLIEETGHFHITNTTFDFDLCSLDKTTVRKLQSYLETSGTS
# rRNA inh HTS OD600: second read-out of rRNA inh HTS, no call of its own (marks repeat the call); OD600 change, %; measured here: OD600 growth;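 optical density of the mix in the first replicate; 0 = DMSO median and -100 = no signal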
# rRNA inh HTS RFP: also measured in rRNA inh HTS; calls as there; RFP signal change, %; measured here: RFP humanized mutant strains;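 first replicate; 0 = DMSO median and -100 = no signal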
# * marks the source's active call; other numbers are inactive results; ? = inconclusive; . = no result given; & = joins results of further samples.
# Under each structure – Calb FLC	Vif TR-FRET	RanGTP-Imp inh	rRNA inh HTS	rRNA inh HTS OD600	rRNA inh HTS RFP	Bfl-1 A1 inh	T cruzi inh	Beta cell apopt	AF4-AF9 inh
- CSCCC(NC(=O)c1ccccc1)c1nc(-c2ccccc2)no1 (centres undefined)
→ -8.5	-4.1%	-2.3	.	.	.	.	9.0	.	.
- COc1ccc(-c2csc(NC(=O)CCS(=O)(=O)c3ccccc3)n2)c(OC)c1
→ 20.2	5.9%	-2.4	-18.5	-31.0	6.7	0.6	-5.5	5.3	-1.9
- CCOC(=O)c1ccc[n+](C(C)C(=O)c2ccc(-c3ccccc3)cc2)c1 (centres undefined)
→ 41.4	-0.3%	-1.9	.	.	.	-0.2	10.7	.	.
- COc1ccc(N(CC(=O)Nc2ccccc2C(=O)N2CCOCC2)S(=O)(=O)c2ccc(F)cc2)cc1
→ -1.6	28.5%	-4.8	.	.	.	0.9	-15.2	0.9	.
- COc1cc(OC)cc(-c2cc3nc(C4CCN(C(=O)OC(C)(C)C)CC4)cc(=O)n3[nH]2)c1
→ 2.9	9.3%	13.3	9.4	9.0	0.0	1.0	-6.9	.	-8.9
- O=C(CCS(=O)(=O)c1ccccc1)Nc1nnc(-c2ccco2)o1
→ 16.9	15.6%	-3.3	1.9	2.9	1.5	0.1	-2.6	-12.5	-0.1
- O=[N+]([O-])c1cc(C(F)(F)F)ccc1NCCc1ccncc1
→ 16.4	.	0.1	1.7	6.7	-1.2	0.9	7.8	6.5	-3.2
- C[C@H](CO)N1C[C@H](C)[C@@H](CN(C)S(C)(=O)=O)Oc2c(NC(=O)C3CCCCC3)cccc2C1=O
→ .	.	.	1.3&-2.4	7.0&5.1	-2.8&-6.8	1.3	.	5.0	-3.5&3.1
- CN(C)/C=C/c1c(C#N)c(=O)ncn1Cc1ccccc1
→ 8.5	?	8.2	.	.	.	-0.1	-18.1	-0.4	.
- CCOC(=O)c1ccn(CSc2c(F)c(F)cc(F)c2F)n1
→ .	-8.5%	.	5.0	6.6	-1.3	0.9	.	-5.1	2.6
- CC1CCCCC1NC(=O)COC(=O)c1ccccc1NC(=O)c1ccco1 (centres undefined)
→ 1.5	-5.5%	-4.0	.	.	.	2.7	-12.6	6.9	.
- CCOC(=O)c1sc(NC(=O)Cn2nnc3sc4c(c3c2=O)CCCC4)nc1C
→ 0.1	0.3%	?	.	.	.	0.7	-1.7	5.9	.
- COc1ccccc1NC(=S)N(Cc1ccc(Cl)cc1)CC1CCC(C(=O)O)CC1 (centres undefined)
→ 24.4	3.7%	-5.3	-16.4	-6.1	2.0	-0.1	3.4	-2.5	1.1
- COc1cc(NS(=O)(=O)c2ccc(N/C=C(\C#N)c3nc4cc(Cl)ccc4o3)cc2)nc(OC)n1
→ 8.9	6.2%	-0.3	.	.	.	-0.6	5.7	22.5	.
- COc1ccc(NC(=O)CN(C)C(=O)c2ccc(N3CCOCC3)c([N+](=O)[O-])c2)cc1
→ -8.9	-1.7%	-2.1	0.6	8.5	-0.9	0.2	-10.2	.	0.6
- COc1ccc(Cn2nc(C)n(N(C)c3ncc(C(F)(F)F)cc3Cl)c2=O)cc1
→ -20.0	0.3%	3.7	.	.	.	-1.0	-4.9	-6.0	.
- O=C(NCCOc1ccccc1)c1cc(S(=O)(=O)N2CCOCC2)ccc1F
→ 5.1	.	-0.6	4.9	6.4	-0.2	.	-13.8	.	-3.9
- Cc1cc(C)cc(-n2ccnc2SCC(=O)O)c1
→ -6.0	?	1.9	8.7	-3.0	2.1	0.3	-9.8	5.6	-3.2
- COc1ccc(C(C)(C)C)cc1NC(=O)c1ccccc1-n1cnnn1
→ .	.	.	-6.0	-23.2	-4.0	1.1	.	-2.3	1.1
- O=C(O)CN1CCN(Cc2ccc(F)cc2)C1=O
→ 1.0	.	-1.3	11.8	18.7	-2.6	-0.8	-14.3	1.7	2.7
- FC(F)(F)c1cnc(Nc2ccc(N3CCOCC3)cc2)c(Cl)c1
→ 3.0	28.9%	-4.9	.	.	.	1.2	51.7	-2.5	.
- O=C(CCCc1ccccc1)NC12CC3CC(CC(C3)C1)C2
→ 0.2	1.9%	-2.0	-48.4	-73.2	-18.2	1.0	-1.8	0.4	-2.5
- Cn1c(C(=O)O)c(CC(=O)Nc2ccc(F)cc2F)c2ccccc21
→ -0.3	8.0%	5.2	.	.	.	-0.1	-7.4	-3.5	.
- Cc1ccc(S(=O)(=O)N2C(=O)CCC2C(N)=O)cc1 (centres undefined)
→ -1.3	-11.2%	-5.4	9.3	4.8	1.0	0.6	0.2	-4.3	-2.4
- OCCNCCCCOc1cccc(Br)c1
→ 1.4	1.5%	2.5	-1.4	-7.8	5.7	-0.2	18.7	-2.5	0.6
- NC(=O)C1(c2ccccc2)OC1c1ccccc1 (centres undefined)
→ -5.0	.	3.9	13.2	13.9	1.9	-0.3	-2.3	-1.5	0.3
- CCOc1ccc(-n2c(SCC(=O)NC)nnc2-c2ccco2)cc1
→ 9.1	.	1.6	0.1	9.4	2.0	0.3	0.9	-2.5	-3.0
- Cc1cc(C)n2c(SCC(=O)Nc3ccccc3)nnc2n1
→ 1.5	9.6%	3.0	4.5	10.8	-0.1	0.0	-22.2	-1.4	-2.2
- CSCCC(NC(=O)COc1ccccc1)C(=O)OCC(=O)c1ccccc1 (centres undefined)
→ 9.0	2.4%	-0.3	8.6	10.7	2.7	0.2	-7.7	-4.7	2.1
- COc1cccc(S(=O)(=O)N2CCN(c3ccccc3F)CC2)c1
→ -1.0	1.9%	-0.2	.	.	.	-0.4	7.9	5.6	.
- CCNC(=O)C1CC(=O)N(Cc2ccc3c(c2)OCO3)C(=Nc2ccc(F)cc2)S1 (centres undefined)
→ 0.2	-5.2%	4.4	.	.	.	0.3	16.6	-0.2	.
- C=CCc1ccc(OCC(O)CN2CCN(Cc3ccc(Cl)cc3)CC2)c(OC)c1 (centres undefined)
→ -16.4	22.7%	-4.3	-51.9	-80.7	-29.9	-0.9	33.7	-1.0	12.8
- O=C(Nc1ccccc1)C1=C[C@@H](c2ccc(Br)cc2)C[C@@H](OCc2ccc(CO)cc2)O1
→ 4.3	-1.8%	2.9	-10.9	-4.6	6.6	-1.6	39.4	2.9	-0.7&-2.5
- CCN1CCN(c2ncnc3sc(C)c(-c4ccccc4)c23)CC1
→ -3.5	-9.0%	1.9	7.8	10.3	0.9	0.4	-6.8	-5.7	0.4
- Cc1ccc(C(=O)NNC(=O)CCCN2C(=O)/C(=C/c3ccccc3Cl)SC2=S)cc1
→ 2.5	.	-5.7	.	.	.	-0.1	-19.9	-21.4	.
- CC(CN1CCN(C)CC1)OC(=O)c1cccc(F)c1 (centres undefined)
→ -6.9	-7.4%	2.7	16.3	15.1	1.3	0.8	36.0	8.6	-0.7
- Cc1ccc(NC(=O)c2sc3ncnc(N4CCN(c5ccccn5)CC4)c3c2C)c(C)c1
→ -3.7	.	0.8	0.0	-8.7	0.7	-0.8	51.2	5.2	-0.5
- O=c1c2ccccc2nc2n1CCN2
→ -3.4	4.1%	3.1	7.9	1.9	-6.8	-0.6	-3.7	-8.7	3.9
- O=C(NCCN1CCCC1)c1ccc2c(=O)n(CCc3ccccc3)c(=O)[nH]c2c1
→ 5.5	-3.0%	0.3	.	.	.	0.3	-10.5	.	.
- CCOc1ccc(N(CC(=O)N2CCCCCC2)S(C)(=O)=O)cc1
→ -1.1	.	4.2	-0.8	-3.7	-1.1	0.0	-12.4	-6.1	5.2
- O=C(COc1ccc([N+](=O)[O-])cc1)Nc1ccc2c(c1)OCO2
→ 7.5	-3.2%	0.0	20.2	9.7	1.9	-0.8	-1.8	.	-2.0
- Cc1ccc(OCC(=O)N2CCCCCC2)c(C)c1
→ 19.8	15.3%	17.1*	-6.6	-7.8	-0.9	-0.4	12.5	-6.6	2.4
- COc1ccc(NC(=O)C(NC(C)=O)C(=O)Nc2ccc(F)cc2)cc1 (centres undefined)
→ -0.5	-5.3%	6.3	6.6	-2.3	-1.7	-0.3	17.6	-2.9	0.2
- CNS(=O)(=O)c1cn(CC(=O)NCc2ccccc2OC)cc1S(=O)(=O)NC
→ -9.5	-6.1%	5.4	5.7	11.5	-0.8	0.5	10.6	-3.9	-1.1
- COc1ccc(N2CCN(Cc3nc4scc(-c5ccccc5)c4c(=O)[nH]3)CC2)cc1
→ -2.0	-20.0%	-0.6	.	.	.	0.1	6.8	2.6	7.6
- COc1cc(NS(=O)(=O)c2ccc(NC(=S)NC(=O)c3cccs3)cc2)nc(OC)n1
→ 30.3	.	3.0	.	.	.	1.5	17.0	-2.3	.
- Cc1ccc(C(=O)c2sc(Nc3ccccc3)c(C#N)c2N)cc1
→ ?	9.4%	-3.2	.	.	.	0.7	-2.5	4.2	.
- O=C(CN1C(=O)NC2(CCCC2)C1=O)NCCc1ccccc1
→ .	.	.	7.7	13.6	-0.5	0.8	.	-3.4	0.2
- CCOC(=O)c1cnc2nc(COc3ccccc3)[nH]n2c1=O
→ -15.1	-3.4%	-0.2	.	.	.	0.5	3.2	-3.7	.
- COC(=O)C1=C(C)NC(=O)NC1c1ccccc1 (centres undefined)
→ -13.7	14.9%	0.7	.	.	.	0.3	.	1.4	.
- COc1ccc(OC)c(C2C3=C(CCCC3=O)NC3=C2C(=O)CCC3)c1
→ 2.3	?	3.1	.	.	.	0.0	-11.6	-5.2	.
- O=C(Nc1ccccc1N1CCCCC1)c1ccco1
→ 3.4	0.4%	1.1	.	.	.	0.1	3.3	-10.8	.
- Cc1cc(C)c2nc(-c3ccccn3)cc(C(=O)NCc3ccco3)c2c1
→ -2.0	?	7.0	.	.	.	-0.8	13.2	-4.5	.
- O=S1(=O)CCO[C@H]2Cc3ccccc3[C@H]2N1Cc1ccccc1Br
→ 49.7	.	1.2	-19.5	-20.2	-5.4	1.5	14.0	5.3	-8.6
- O=C(/C=C/c1ccc(Cl)cc1)NC(=S)Nc1ccc(C(=O)O)cc1
→ -6.4	0.4%	-1.3	1.1	8.8	-2.6	0.0	1.1	-14.2	1.1
- COc1ccc(C2CCCN2C(=O)Nc2ccccc2)cc1OC (centres undefined)
→ 0.5	-2.6%	?	-4.1	-4.0	-1.3	-0.2	-12.6	-7.7	-4.3

# Only part of the results is shown. The share of hits here may be higher or lower than overall.
